High-throughput results as filed in PubChem.
ClpP mod = qHTS Assay for Activators of ClpP; purified B. subtilis ClpP, FRET peptide cleavage, 20 min; ATP-dependent Clp protease proteolytic subunit (Bacillus subtilis (strain 168)), P80244; AID 651965, 2013; Potency, µM (highest dose often 57.5 µM), without a hit: at the top dose activity change, negative = active; hit rate 1.9% among 340,000; active = well fitted falling curve with a large enough effect; inconclusive = small, poorly fitted or top-dose-only effect; inactive = no such curve, though single readings can be large or run the other way; note: potency is the fitted concentration of half-maximal effect; the source files actives as falling curves though it sought activators and does not explain the sign; nearly all actives have a fitted effect of over 65% in size; many hits overshoot -100%
Target sequence (P80244 whole entry, looked up): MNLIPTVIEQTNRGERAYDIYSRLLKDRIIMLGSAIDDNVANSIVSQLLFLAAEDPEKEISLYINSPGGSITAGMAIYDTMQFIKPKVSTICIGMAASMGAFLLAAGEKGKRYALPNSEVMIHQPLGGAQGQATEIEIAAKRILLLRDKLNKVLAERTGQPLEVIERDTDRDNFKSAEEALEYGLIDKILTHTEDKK
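FRET quenching reversal measured ClpP activation: 10 microg/mL B. subtilis ClpP at pH 8 with the FRET-FV decapeptide, read at 430 nm after 320 nm excitation. The 20-min minus 0-min signal was scaled between DMSO/no-enzyme wells and ADEP (5.8 microM final).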
TRPV1 PAM = enhances activation of the human vanilloid receptor TRPV1; Q8NER1; hit rate 0.02% among 320,000; AID 540277; TRPV1-expressing cells, Fluo-8 calcium influx, capsaicin EC20 potentiation; host cell line not named in the record; control for the full effect not named in the record; potentiation, % at 8.33 µM; active means potentiation above 80%; inconclusive means 30% to 80%; inactive means below 30%; note: 0% is about no effect
Target sequence (Q8NER1 whole entry, looked up): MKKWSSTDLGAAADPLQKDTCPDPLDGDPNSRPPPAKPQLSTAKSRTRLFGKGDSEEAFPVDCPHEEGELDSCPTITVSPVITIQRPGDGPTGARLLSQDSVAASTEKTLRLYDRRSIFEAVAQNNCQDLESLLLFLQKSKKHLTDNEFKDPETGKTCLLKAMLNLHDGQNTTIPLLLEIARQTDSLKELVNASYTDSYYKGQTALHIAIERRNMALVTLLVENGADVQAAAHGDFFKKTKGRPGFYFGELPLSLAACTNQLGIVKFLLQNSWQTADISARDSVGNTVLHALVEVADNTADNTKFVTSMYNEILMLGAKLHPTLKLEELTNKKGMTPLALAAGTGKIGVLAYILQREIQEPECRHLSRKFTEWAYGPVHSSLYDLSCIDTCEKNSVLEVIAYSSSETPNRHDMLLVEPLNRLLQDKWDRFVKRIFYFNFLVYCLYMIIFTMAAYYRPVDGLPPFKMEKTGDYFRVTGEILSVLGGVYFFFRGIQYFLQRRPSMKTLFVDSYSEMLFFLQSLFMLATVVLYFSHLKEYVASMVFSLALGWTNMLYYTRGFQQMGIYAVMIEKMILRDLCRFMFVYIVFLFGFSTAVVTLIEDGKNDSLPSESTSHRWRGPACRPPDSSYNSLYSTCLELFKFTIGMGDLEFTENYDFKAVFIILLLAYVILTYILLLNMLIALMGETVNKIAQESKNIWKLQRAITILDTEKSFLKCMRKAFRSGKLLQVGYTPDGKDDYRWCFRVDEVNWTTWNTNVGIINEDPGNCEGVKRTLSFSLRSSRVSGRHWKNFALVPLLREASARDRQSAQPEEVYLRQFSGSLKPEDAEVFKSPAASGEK
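Cells expressing TRPV1 were dye-loaded with Fluo-8 and read kinetically: 10 s baseline, 3 min after compound (agonist portion), then 2 min after EC20 capsaicin (allosteric enhancer portion). Calcium-bound dye fluorescence at 480/520 nm.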
TRPML1 ag = agonists of human TRPML1 channel | Q9GZU1 | TRPML1-expressing cells, Ca2+ dye fluorescence, FDSS; host cell line not named in the record; reference of the full effect not given here | activation, % (test concentration not listed) | hit rate 0.12% among 410,000; in the data active = activation above about 50%; inconclusive = about 30% to 50%; inactive = below about 30%; note: 0% is about no effect; the text of the record puts the active cut at 80%
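Tet-induced TRPML1-DL cells, 1,500 per well, cultured overnight, were loaded with a no-wash Ca2+ dye for 45–90 min. Calcium fluorescence was recorded on the FDSS for 110 s after compound addition, before the EC80 agonist (4 uM 54-4) was added.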
TRPML1 inh = blocks the human TRPML1 channel; Q9GZU1; AID 624415; TRPML1-inducible cells, Ca2+ dye fluorescence, FDSS; active compounds read low; inhibition of EC80 agonist-evoked calcium signal; activity change, negative = inhibition, % (test concentration not listed); hit rate 0.02% among 390,000; in the data active means activity change below about -50%; inconclusive means about -30% to -50%; inactive means above about -30%;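 note: stimulus is agonist 54-4 at its EC80 concentration; % is set by controls: 0 for no effect and ±100 for the full control effect; compound concentration not given in the record; the text of the record puts the active cut at -80%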
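TRPML1-DL cells, Tet-induced overnight (~16 h, 37 °C) at 1,500 cells/well, were loaded with Ca8 no-wash dye plus quencher for 45-90 min at room temperature. Compounds were pinned during FDSS kinetic reading; agonist 54-4 at EC80 (4 uM final) then added.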
Menin MLL FP FL = displaces fluorescein MLL peptide from human menin | Fluorescence polarization, fluorescein-MLL peptide displacement from menin | FP activity change, % at 61.4 µM | 290,000 tested, under 10 active | AID 1766; inconclusive = falling polarisation curve, or a change in total fluorescence; inactive = total fluorescence flat and polarisation flat or rising; no compound was filed as active; the % refers to the polarisation; negative = inhibition;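 note: % of control where 0% means no effect; inhibitors lower the polarisation; unlabelled MLL peptide was the positive control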
Sfp PPTase inh = Sfp phosphopantetheinyl transferase inhibition. Biochemical Sfp PPTase activity, qHTS. Potency, µM, without a hit: max response, negative = inhibition, actives largely listed as inhibitors. hit rate 3.5% among 310,000. AID 1490; active = well fitted inhibition curve with a large enough effect; inconclusive = small, poorly fitted or top-dose-only effect, or another doubt; inactive = no such curve, though single readings can be large or run the other way;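 note: the enzyme is Sfp with the accession as filed and its product quenches rhodamine fluorescence; potency is the fitted concentration of half-maximal effect; 0% = enzyme reaction without inhibitor and -100% = no enzyme wells; top concentration of the series not given in the record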
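After 15 min at room temperature with compound, 15 nM Sfp received 5 uM rhodamine-CoA plus 12.5 uM BHQ-2-ybbR (50 mM Hepes pH 7.6, 10 mM MgCl2). Rate came from the fluorescence difference over 30 min, ex 525/em 598 nm.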
PINK1 modulator = changes PINK1 expression; PINK1 immunofluorescence, high-content cytometry, 24 h; Potency, µM (doses to about 76.6 µM), without a hit: at the highest dose activation (PINK1 increase), hits mostly activators; hit rate 0.2% among 410,000; AID 624263; active = well fitted activation curve with a large enough effect; inconclusive = small, poorly fitted or top-dose-only effect; inactive = flat fitted curve, though single readings scatter; cell line not stated here;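 note: potency is the fitted concentration of half-maximal effect; % of control where 0% means no effect; nearly all actives have a fitted effect of over 65% in size; a mitochondrial uncoupler was the plate control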
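Decision-based qHTS: stable cells, 24 h exposure to five compound concentrations, CCCP as control. Fixed cells stained for PINK1 plus nuclear, mitochondrial and cell markers, cytometer read.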
* marks the source's active call; other numbers are inactive results; ? = inconclusive; / = no result given; & = joins results of further samples; [ ] = another dose, or the depositor's remark. Outcome played no part in choosing rows; about 4.4% have a hit in one of these screens.

SMILES	ClpP mod	TRPV1 PAM	TRPML1 ag	TRPML1 inh	Menin MLL FP FL	Sfp PPTase inh	PINK1 modulator
CCCCC(=O)NC(c1ccccc1OC)c1ccc2cccnc2c1O (stereo not drawn)	-0.8%	-5	/	/	0.0	16%	0.7%
Cc1ccnc(N2CCC(C(=O)Nc3ccc4c(c3)CCC4)CC2)n1	?	?	1.2	25	-1.9	5%	0.6%
CN1C(=O)C(=O)N(CC(=O)N2CCc3ccccc32)C1=O	-2.0%	8	0.0	-17	4.9	10%	3.3%
S=C1NCN(C2CCCCC2)CN1Cc1ccccc1	-1.7%	-1	-0.3	-4	2.6	14%	-0.1%
COc1ccccc1NC(=O)C1(C)Cc2ccccc2C(=O)O1 (stereo not drawn)	-2.3%	8	0.6	18	1.3	16%	1.1%
Cc1ccc(SCC(=O)Nc2ccc(F)cc2[N+](=O)[O-])cc1C	-1.7%	4	5.9	-7	-6.2	-7%	2.1%
CCCCc1ccc(NC(=O)C2CCCO2)cc1 (stereo not drawn)	-0.5%	-14	0.0	3	2.6	9%	0.3%
O=C(Nc1cccc(Cl)c1)c1cc2c(=O)n3ccccc3nc2s1	-17%	3	-0.5	41	-0.5	0%	1.2%
Fc1ccc(-c2nnn(Cc3ccc(F)cc3Cl)n2)cc1	-0.9%	28	0.9	22	2.9	-1%	7.2%
c1ccc2nc(-c3ccncc3)ccc2c1	0.3%	-7	0.5	24	-1.3	1%	-2.6%[38.3 µM]
COc1cc2[nH]c(=O)n(CCCC(=O)NC3CCCCC3)c(=O)c2cc1OC	1.4%	12	-1.0	6	3.2	1%	0.9%
COc1ccc(CCNC(=S)NC(=O)c2ccc(Br)cc2)cc1OC	0.0%	7	2.3	5	-2.1	1%	1.1%
CC(=O)c1cccc(Nc2cc(C)nc3nc(Cc4ccccc4)nn23)c1	0.9%	/	-1.0	-22	/	/	1.9%
Cc1ccc(OCC(=O)N(Cc2ccccc2)C(C)C)c([N+](=O)[O-])n1	3.2µM*	-9	-0.9	0	1.5	-5%	-1.5%
CSc1nnc([C@@H]2CCCN2C(=O)OC(C)(C)C)o1	-0.8%	13	1.0	19	1.0	-2%	0.6%
CC1(c2ccc(Cl)cc2)NC(=O)N(CC(=O)N2CCc3ccccc3C2)C1=O (stereo not drawn)	-1.5%	-2	8.0	8	/	/	2.9%
O=C(NC(=S)Nc1ccc2oc(=O)ccc2c1)c1cccc(Cl)c1	/	4	0.0	8	9.4	-7%	3.4%
CC1=C/C(=N\NC(=O)c2ccc(O)cc2)CC1	/	?	2.2	-21	-0.1	?	-0.2%
O=C(NC(=S)N1CCN(c2ccccc2)CC1)c1c(F)cccc1F	-1.2%	3	0.2	-10	/	17%	2.6%
COc1cccc(C(=O)N/N=C/c2cn[nH]c2-c2ccc(OC)cc2OC)c1	-6.4%	12	0.0	4	0.7	17%	-2.2%
O=C(Cc1ccccc1[N+](=O)[O-])Nc1ccccc1C(=O)N1CCCC1	/	7	-0.1	41	-2.2	16%	3.0%
CCCOc1ccc(OCCOCCNCc2ccccc2)cc1	1.8%	10	0.2	4	6.2	-16%	6.3%
CCn1c(CN2CCOCC2)nc2cc(NC(=O)c3ccccc3[N+](=O)[O-])ccc21	-7.0%	/	-0.3	34	/	/	0.2%
COc1ccnc2c1c(=O)n(Cc1ccc(Cl)cc1Cl)c(=O)n2C	-8.2%	3	-1.4	4	3.7	1%	1.9%
CN(C)c1ccc(/C=N/NC(=O)c2cc(-c3ccc4c(c3)OCO4)n[nH]2)cc1	-0.2%	12	0.1	10	-0.5	-4%	4.8%
CCOc1ccccc1NC(=O)CSc1ncnc2c1oc1ccccc12	0.5%	0	-0.3	6	5.2	9%	1.3%[38.3 µM]
CCN(C(=O)c1cnc2ccc(C)cn2c1=O)c1ccccc1	-3.3%	/	-0.8	-8	/	/	-0.5%
CC1CCC(NC(=O)CN(C)S(=O)(=O)c2ccc3c(c2)CCC(=O)N3)CC1 (stereo not drawn)	0.7%	-12	-0.3	7	/	14%	-0.7%
CCN(CC)C(=O)C1CCN(C(=O)c2oc3ccc(C)cc3c2C)CC1	1.5%	-3	-0.4	-11	/	8%	0.5%
Cc1cc(C)cc(NS(=O)(=O)c2ccc3c(c2)CCCN3C(=O)C2CCC2)c1	0.1%	/	1.4	7	/	/	0.4%
CCOc1c(C(N)=O)cc([N+](=O)[O-])cc1[N+](=O)[O-]	/	1	0.0	9	-1.2	18%	0.3%
Cc1ccc(NC(=O)CSC(C)C(=O)OC(C)C(=O)NC2CCCCC2C)cc1 (stereo not drawn)	2.1%	12	-0.4	3	/	/	0.0%
Cc1ccccc1NS(=O)(=O)c1cc(S(C)(=O)=O)ccc1Cl	-0.3%	2	0.4	9	-0.6	12%	/
C=CCOC(=O)C(=O)/C=C/c1ccc2c(c1)Cc1ccccc1-2	139%	-6	1.2	-4	11	-25%	3.2%
CSc1ccccc1NC(=O)CN(C)Cc1ccc(Br)cc1	-7.8%	-3	1.4	30	-0.6	-12%	1.7%
CCC1=C(OC(=O)N(CC)CC)N2C(=O)OC(=NCCc3c[nH]c4ccccc34)[C@]2(Cc2ccccc2)[C@H]2C1=CC[C@H]1C(=O)NC(=O)[C@H]12	-0.9%	-6	-0.7	-2	0.3&2.5	29%&1%	2.8%
CCOc1ccc2c(c1)c(=O)c(S(=O)(=O)c1ccc(Cl)cc1)cn2Cc1ccccc1C	?	/	-0.7	62	/	/	0.9%
Cc1[nH]c2ccccc2c1C(=O)CN(C)c1ccccc1	0.6%	/	2.5	/	/	/	0.4%
CC(C(=O)NCc1cccs1)n1cccc1 (stereo not drawn)	-0.1%	-5	-0.9	1	1.5	19%	-0.3%
CSc1ccccc1C(=O)NCc1cccnc1	-0.3%	6	0.2	-2	1.8	8%	2.5%
COc1ccc(CC(=O)Nc2nc(OCC(F)(F)F)cnc2-c2ccc(Cl)cc2Cl)cc1	-8.6%	/	-1.1	/	/	/	-0.2%
Cc1cc(Br)c2c(c1)=C(c1sc(N3CCCCCC3)nc1O)C(=O)N=2	2.0%	-5	1.8	-20	3.0	7%	2.4%
COc1ccc(N2CCN(CCCNC(=O)C(=O)c3c(C)n(C)c4ccccc34)CC2)cc1	0.8%	-6	-0.6	-12	/	7%	1.6%
O=C(COC(=O)c1ccccn1)NNC(=O)c1ccc(Br)cc1	2.1%	/	1.7	16	/	/	0.6%
Fc1cccc(CSc2nc3ncccc3[nH]2)c1	-1.7%	-23	1.1	21	1.0	1%	-0.2%
Cc1nc(SCC(=O)NC(=O)NCc2ccccc2)nc(C)c1C	-0.8%	-4	1.3	-9	0.9	3%	0.1%
CCC(OC(=O)c1ccco1)C(=O)NCc1ccc(OC)cc1 (stereo not drawn)	/	3	2.1	11	-5.0	20%	-1.3%
COCCN1Cc2cccc(C(=O)NCc3ccccn3)c2C1=O	-1.6%	/	-0.6	-3	-0.3	9%	-1.2%
COc1ccccc1Nc1nc(N)nc(CSc2nccn2C)n1	-0.6%	13	4.4	5	-1.8	11%	1.2%
Cc1cc(C)c(S(=O)(=O)N2CCCC(C(=O)NC3CC3)C2)c(C)c1 (stereo not drawn)	-1.9%	-2	0.2	-20	/	21%	-0.5%
CC(C)C[C@H]1CN(CCCC[C@H]2CNC(=O)C(=O)N2CCc2ccccc2)C(=O)C(=O)N1Cc1ccccc1	-0.2%	/	-0.6	/	/	/	1.5%
C[C@@H]1CCCCO[C@@H](CN(C)Cc2ccncc2)[C@@H](C)CN([C@H](C)CO)C(=O)c2cc(NC(=O)c3ccccc3)ccc2O1	-2.3%	/	-0.3	23	/	/	2.4%
CCCCn1nnnc1SCC(=O)c1ccc(C)c(C)c1	0.8%	-10	-0.2	1	6.1	-28%	-1.4%
CC(NC(=O)COc1cccnc1[N+](=O)[O-])c1ccc(Cl)cc1 (stereo not drawn)	/	?	1.5	-1	-2.4	-11%	0.6%
Cc1ccc2nc(-c3ccccc3)c(-c3ccccc3)nc2c1	4.6%	-2	2.6	-12	1.8	-15%	8.2%
CC[C@@]12C(=O)N(c3cccc(Cl)c3)C(=O)N1[C@H](c1cccc(C)c1)[C@@H]1C(=O)N(Cc3ccccc3)C(=O)[C@@H]12	-3.5%	-13	0.9	12	/	/	0.5%
COc1cccc(NC(=O)C(=O)NCC2CCCN2S(=O)(=O)c2ccccc2)c1 (stereo not drawn)	/	?	0.8	37	/	/	-0.1%
O=C(c1ccc([N+](=O)[O-])cc1)N(Cc1ccc(Br)cc1)N1C(=O)CCCC1=O	-0.4%	-7	23	59	-0.9	-10%	6.9%[38.3 µM]
CCOC(=O)c1cccnc1SCc1cc(=O)n2ccccc2n1	32µM*	?	0.1	14	5.2	18%	2.9%[38.3 µM]
CSc1nc2ccc(NC(=O)C3CC(=O)N(Cc4ccco4)C3)cc2s1 (stereo not drawn)	-0.2%	7	-0.9	6	-2.8	-23%	-1.0%
Going on with the list:
SMILES	ClpP mod	TRPV1 PAM	TRPML1 ag	TRPML1 inh	Menin MLL FP FL	Sfp PPTase inh	PINK1 modulator
CN(C)N1C(N)=C(C#N)C(c2ccc3c(c2)OCO3)C2=C1CC(C)(C)CC2=O (stereo not drawn)	3.5%	6	-1.4	0	0.6	13%	2.1%
CCS(=O)(=O)c1ccc2oc(SCC(=O)c3c(N)n(C4CC4)c(=O)[nH]c3=O)nc2c1	0.4%	?	-0.7	6	/	/	0.3%
COc1ccc(C(C)NC(=O)c2cccc([N+](=O)[O-])c2)cc1OC (stereo not drawn)	-1.1%	3	0.7	2	1.4	6%	-1.4%
O=C(Nc1cc(Cl)ccc1N1CCOCC1)C1CC1	-0.9%	/	0.2	4	/	/	-0.5%
CC(C)(C)CNC(=O)c1cc2c(Br)ccc(Br)c2nc1N	-0.4%	/	-1.2	/	/	/	7.9%
Cc1ccccc1C(=O)N1CCC(C(=O)OCc2ccccc2Cl)CC1	0.6%	-6	0.3	27	/	/	0.7%
CC(C)OCCCNC(=O)c1c(N)n(/N=C/c2cccs2)c2nc3ccccc3nc12	-9.4%	9	-0.7	-11	16	-3%	0.7%
